Bead autofluor – counter-screen for toxin protease inhibitors: compound fluorescence | compound autofluorescence counterscreen, microsphere flow cytometry; active compounds read high | fluorescence intensity (no concentration beside the values) | hit rate 3.1% among 360,000 | AID 624483;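 active = at least 3 SD above the mean of all compounds, about 16000 in these data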;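 also: 100 nL of 1 mM stock went into each well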
RN4220 kill – kills Staphylococcus aureus RN4220; AID 1259311; S. aureus RN4220 growth, OD600, 16 h; hit rate 0.33% among 330,000; inhibition, % (no concentration beside the values);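 active = z-score of -3 or lower and OD600 up to 0.18 on both plates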;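 also: plate controls were untreated cells for no effect and reference antibiotic for full effect; stock transfer was 100 nL into about 80 µL; one replicate is shown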
Mtb hypoxia inh – inhibitors of hypoxia-regulated fluorescent reporter in Mycobacterium tuberculosis; M. tuberculosis hypoxia-regulated fluorescent reporter, fluorescence; fluorescence inhibition, % (no concentration beside the values); hit rate 0.1% among 300,000;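 active = 35 to 45% if threefold the growth effect, above 45% if 1.5-fold the growth effect; inactive = the rest, general growth blockers included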;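 also: wells of about 50 µL received 100 nL stock; 0% = vehicle wells and 100% = reference inhibitor wells; whole bacteria with a GFP reporter of the hypoxia response; strong numbers were not always called active; many hits fall short of the cut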
BJeLR lethal – BJeLR cell viability loss | BJeLR (HRASV12) viability, CellTiter-Glo ATP luminescence, 48 h; reference of the scale not given here | inhibition, % (test concentration not listed) | hit rate 0.17% among 300,000;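 active = replicate mean above 50%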;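 also: 50 nL library stock added to about 25 µL; numbers are from one replicate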
PrP UTR inh – suppresses PrP 5' UTR mRNA reporter expression; cell-based PrP 5' UTR mRNA reporter, plate reader; inhibition, % (concentration not given with the values); hit rate 0.35% among 340,000;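 active = every replicate at 50% or more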;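 also: 0 = median of the neutral control wells; tested in H4 reporter cells; numbers are from one replicate; inactives centre near -14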
Sa ugtP lethal – compounds lethal to S. aureus RN4220 ugtP deletion mutant; OD600 growth, 16 h; some inactives read as strong as hits; growth inhibition, % (no concentration beside the values); hit rate 0.54% among 330,000; AID 1259309;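 active = z-score under -3 and OD600 up to 0.15 on both plates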;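 also: plate controls were untreated wells for no effect and antibiotic for full effect; wells of about 80 µL received 100 nL stock; the first replicate is given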
Mtb hypoxia inh growth – recorded beside Mtb hypoxia inh, whose call it bears; growth inhibition, %; measured here: M. tuberculosis growth (absorbance);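 0% = vehicle and 100% = reference antibiotic; read after six days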
Numbers without * were called inactive; x = no result given.

Below each compound: RN4220 kill | Bead autofluor | Mtb hypoxia inh growth | BJeLR lethal | Mtb hypoxia inh | PrP UTR inh | Sa ugtP lethal
1	O=C(O)C1CCN(C(=O)COc2ccc(Br)cc2)CC1
→ 2.9 | 3093 | 8 | -1 | 13 | -21 | 12
2	Cc1nn(-c2ccc(F)cc2)c(Cl)c1/C=N/NC(=O)c1cccc(S(=O)(=O)N2CCCC2)c1
→ x | 2379 | x | 10 | x | -17 | x
3	CC1CN(S(=O)(=O)c2ccc(C(=O)NC3CCCCC3)cc2)CC(C)O1 (centres undefined)
→ 0.6 | 3428 | 13 | x | 7 | -18 | 0
4	O=C(Nc1ccccc1F)c1ccc([N+](=O)[O-])s1
→ 2.4 | 3158 | 18 | 3 | 21 | -8 | 16
5	COc1ccc(CNC(=O)CCN2C(=S)NC(C)(C)CC2C)cc1 (centres undefined)
→ 12 | 4425 | -1 | 3 | 13 | -19 | 5
6	Cc1ccc(-c2nc(C#N)c(N3CCC(C(N)=O)CC3)o2)cc1
→ -3.6 | 5020 | -1 | 0 | 5 | -8 | 4
7	O=C(NCCC(=O)N(CCc1ccccc1)Cc1ccccc1)c1ccccc1Cl
→ 0.5 | 5041 | -7 | -18 | 3 | -15 | 5
8	COc1ccc(C(O)C(CN2CCOCC2)c2ccccc2)cc1F (centres undefined)
→ 0.1 | 3321 | 5 | 6 | 10 | -6 | 3
9	CC(C)CN(CC(C)C)S(=O)(=O)N1CCC(C(=O)NCc2ccc3c(c2)OCO3)CC1
→ -8.0 | 4193 | 7 | 3 | -4 | -29 | 15
10	O=C(Nc1ccc(Cl)cn1)c1ccc(Oc2ccccc2)cc1
→ x | 3798 | x | -7 | x | -85 | x
11	O=C(Nc1cccc(S(=O)(=O)NC2=NCCCCC2)c1)c1cc(-c2ccc(Cl)cc2)nc2ccccc12
→ -1.8 | 9068 | 5 | -7 | 9 | -12 | -2
12	CC(=O)N(N=C1C(=O)Nc2ccccc21)c1ccccc1
→ 9.4 | x | -1 | x | 11 | x | 46
13	Cc1ccc(NC(=O)c2cc(S(=O)(=O)N3CCCC3)cn2C)cc1C
→ -1.6 | 5929 | 0 | -5 | -4 | 6 | -8
14	O=C(C=Cc1ccc(Cl)s1)c1ccc(Cl)s1
→ 3.9 | 2821 | x | x | x | -1 | -18
15	O=C(C(c1ccccc1)c1ccccc1)N(Cc1ccco1)C1CCS(=O)(=O)C1 (centres undefined)
→ -2.7 | 4276 | 11 | -8 | 0 | -5 | -2
16	N=c1oc2ccc3ccccc3c2cc1-c1nnc2n1CCCCC2
→ 1.6 | 9634 | 10 | x | 2 | -34 | -4
17	CCCn1c(NC(=O)c2ccc(C)cc2)nc2ccccc21
→ 0.3 | 3679 | x | -3 | x | -23 | 3
18	O=C(OCc1ccccc1)C1=[N+]([O-])OC(C(=O)OCc2ccccc2)C1c1c[nH]c2ccccc12 (centres undefined)
→ 0.9 | 3062 | 8 | x | 4 | -8 | 8
19	COc1ccc(N2C3=C(CC4=C2CC(C)(C)CC4=O)C(=O)CC(C)(C)C3)cc1
→ -1.3 | 9566 | 4 | -1 | -6 | -18 | -2
20	COc1ccc(C2/C=C\CN(C(=O)Nc3ccccc3-c3ccccc3)CC(=O)N2Cc2ccc(F)cc2)cc1 (centres undefined)
→ x | 3888 | x | -6 | x | -2 | x
21	O=C(CNC(=O)C12CC3CC(CC(C3)C1)C2)N1CCN(S(=O)(=O)c2cccs2)CC1
→ 5.5 | 2611 | 8 | -15 | 12 | -24 | 8
22	Cc1noc(C)c1C(=O)Nc1ccc(N(C)C)cc1
→ -0.6 | 5450 | 4 | -4 | -9 | -10 | -5
23	CCC(C)n1nccc1NC(=O)C(C)Cl (centres undefined)
→ 9.1 | 2319 | 2 | 0 | 8 | -17 | 11
24	CC1(C)CC(=O)C=C(c2cccc3c2oc2ccccc23)C1
→ -1.6 | 3482 | 9 | -13 | 10 | -16 | 4
25	Cc1ccccc1OCC(=O)Nc1cc(Cl)ccc1Oc1ccccc1
→ -7.5 | 2402 | 1 | 1 | -3 | -14 | 4
26	Cc1ccc(CC23CN4CCN(CC(C4)C2O)C3)c(C)c1 (centres undefined)
→ -2.2 | 9594 | -10 | -2 | -1 | -3 | -2
27	Cn1cccc1CC(=O)N/N=C/C=C/c1ccco1
→ x | 2520 | x | 0 | x | -12 | x
28	COc1cc(/C=C2\C(=N)N3N=C(CC(=O)N4CCOCC4)SC3=NC2=O)cc(OC)c1OC
→ 1.1 | 4806 | 3 | 5 | 10 | -5 | 5
29	CCOC(=O)C1C2COc3ccc(OC)cc3C2N2C(=O)CN(CCc3c[nH]c4ccccc34)C(=O)[C@@]12C (some centres undefined)
→ 8.6 | x | 4 | x | 3 | x | 11
30	O=C(Nc1ccc(N2CCN(c3ccc(O)cc3)CC2)cc1)Oc1ccccc1
→ 4.2 | 9265 | 1 | -1 | -2 | -1 | -4
31	COc1cc(/C=C/C(=O)OCC(=O)Nc2ccc([N+](=O)[O-])cc2)ccc1O
→ -5.2 | 5541 | -2 | -1 | 7 | -11 | -12
32	CCOC(=O)N1CCN(C(=O)c2ccc(CNS(=O)(=O)c3ccc(NC(C)=O)cc3)cc2)CC1
→ 2.2 | 5647 | 4 | 5 | -4 | -10 | 1
33	COc1ccc(S(=O)(=O)N(C)C)cc1NC(=O)CSc1ncccn1
→ 2.5 | 2022 | -3 | 5 | -2 | -14 | 5
34	CC(C)OC(=O)/C(=C/c1ccc(Br)cc1)NC(=O)c1ccco1
→ 8.3 | 1860 | 12 | -17 | 14 | -9 | 4
35	CCOc1ccc(CCNC(=O)COC(=O)c2ccc(C)s2)cc1OCC
→ 3.7 | 4939 | -5 | 15 | 9 | 0 | 11
36	CCCCn1nc2cc(C(=O)NCCc3cccs3)ccc2c1OCC
→ 5.4 | 4063 | 13 | 1 | 20 | -26 | 7
37	CCn1c(O)c(C=NN=Cc2ccccc2)c2ccc(C3=NNC(=O)CC3)cc21
→ 13 | x | 3 | x | -5 | x | -22
38	CC(=O)Nc1ccc(C(=O)N/N=C(\C)CC(=O)Nc2ccc(OCc3ccccc3)cc2)cc1
→ x | 2841 | x | -6 | x | -4 | x
39	Cc1nc(NC(=O)c2ccc(F)cc2)nc2cc3c(cc12)OCO3
→ 3.3 | 12463 | 10 | 4 | 5 | -1 | 4
40	C[C@@H]1C(NC(=O)c2ccccc2)CC2CC1C2(C)C (some centres undefined)
→ 5.0 | 3719 | x | 6 | x | -16 | -12

Values in list order from the list.
Compounds 21 to 24 in RN4220 kill read 5.5, -0.6, 9.1, -1.6
Compounds 21 to 24 in Mtb hypoxia inh read 12, -9, 8, 10
Compounds 21 to 24 in BJeLR lethal read -15, -4, 0, -13

Remaining list, next part:
Below each compound: RN4220 kill | Bead autofluor | Mtb hypoxia inh growth | BJeLR lethal | Mtb hypoxia inh | PrP UTR inh | Sa ugtP lethal
41	COc1ccc2oc(C(=O)OCC(=O)N3C(C)CCCC3C)c(C)c2c1 (centres undefined)
→ 0.7 | 6306 | 0 | 2 | 5 | -14 | 1
42	N#Cc1c(-c2ccccc2)nc(-c2ccccc2)nc1N1CCOCC1
→ 16 | 3018 | 6 | -3 | 13 | -2 | 12
43	CN(CC1COc2ccccc2O1)C(=O)c1ccc(Cl)c(S(=O)(=O)N2CCCCCC2)c1 (centres undefined)
→ 7.8 | 3477 | 3 | x | 1 | -4 | -11
44	COc1cc(NC(=S)NC2CC2)c(OC)cc1Cl
→ 4.5 | 2533 | 6 | 5 | 5 | -26 | 5
45	O=C(CCN1CCOCC1)NC1CCCN(Cc2ccccc2F)C1 (centres undefined)
→ 2.7 | 5563 | 2 | -2 | -7 | 3 | 9
46	Cc1noc(C)c1S(=O)(=O)N(CC(=O)NCc1ccc(Cl)cc1)c1ccc2c(c1)OCO2
→ -3.1 | 4098 | x | 10 | x | -42 | -1
47	COc1ccccc1C(=O)Nc1cc(-c2ccc(C)cc2)no1
→ -7.4 | 3709 | -2 | 1 | 11 | -49 | 30
48	COc1ccc(C(CNC(=O)c2ccc(NS(=O)(=O)c3ccc(F)c(C)c3)cc2)N2CCCC2)cc1 (centres undefined)
→ 4.7 | 8169 | 8 | x | 1 | -11 | 7
49	Cc1ccc(NC(=O)Cc2csc(-c3ccccc3)n2)cc1F
→ -2.0 | 2488 | -4 | 1 | -4 | -16 | -6
50	Cc1ccsc1C=NNC(=O)CN1CCN(Cc2ccccc2)CC1
→ 1.4 | x | 17 | x | 9 | x | 1
51	O=C(N/N=C1\C/C(=N\NC(=O)c2ccncc2)c2ccccc21)c1ccncc1
→ x | 4193 | x | -11 | x | -28 | x
52	COc1ccc(N2CCN(C(=O)c3sc4ncn(CC(=O)N5CCCCC5C)c(=O)c4c3C)CC2)cc1 (centres undefined)
→ 1.9 | 4943 | -4 | -13 | -7 | -24 | 13
53	COc1ccc(F)cc1C(=O)C1CCCN(C(=O)CSc2ccccn2)C1 (centres undefined)
→ 3.0 | 3658 | 0 | 6 | -8 | -18 | 4
54	CCN1CCN(C(=O)c2ccc3c(c2)c(C)c(C)n3Cc2ccccc2)CC1
→ -3.2 | 3682 | 2 | 6 | 16 | -1 | 2
55	O=C(C1CCN(Cc2ccccc2)CC1)N1CCN(C/C=C/c2ccccc2)CC1
→ 5.4 | 2479 | -2 | -7 | 9 | -16 | 4
56	Fc1ccc(NC(=S)NC23CN4CN(CN(C4)C2)C3)cc1
→ 5.8 | 2550 | 0 | 3 | 3 | -11 | 10
57	COc1ccc(OCC(=O)Nc2ccc(C)c(S(=O)(=O)N(C)C)c2)cc1
→ 2.0 | 4276 | 7 | 12 | 4 | -8 | -1
58	CCOC(=O)c1ccc(NCc2ccncc2)cc1
→ 1.3 | 10593 | -6 | -4 | -1 | -19 | 5

Part of the list above in order of count of non-hydrogen atoms, highest first.
Below each compound: RN4220 kill | Bead autofluor | Mtb hypoxia inh growth | BJeLR lethal | Mtb hypoxia inh | PrP UTR inh | Sa ugtP lethal
52	COc1ccc(N2CCN(C(=O)c3sc4ncn(CC(=O)N5CCCCC5C)c(=O)c4c3C)CC2)cc1 (centres undefined)
→ 1.9 | 4943 | -4 | -13 | -7 | -24 | 13
55	O=C(C1CCN(Cc2ccccc2)CC1)N1CCN(C/C=C/c2ccccc2)CC1
→ 5.4 | 2479 | -2 | -7 | 9 | -16 | 4
49	Cc1ccc(NC(=O)Cc2csc(-c3ccccc3)n2)cc1F
→ -2.0 | 2488 | -4 | 1 | -4 | -16 | -6

Record cards, from the list above. Screens in order: RN4220 kill | Bead autofluor | Mtb hypoxia inh growth | BJeLR lethal | Mtb hypoxia inh | PrP UTR inh | Sa ugtP lethal
Listed for CN(CC1COc2ccccc2O1)C(=O)c1ccc(Cl)c(S(=O)(=O)N2CCCCCC2)c1 (centres undefined) → 7.8 | 3477 | 3 | x | 1 | -4 | -11
Listed for COc1ccc(N2CCN(C(=O)c3sc4ncn(CC(=O)N5CCCCC5C)c(=O)c4c3C)CC2)cc1 (centres undefined) → 1.9 | 4943 | -4 | -13 | -7 | -24 | 13
Listed for COc1ccc2oc(C(=O)OCC(=O)N3C(C)CCCC3C)c(C)c2c1 (centres undefined) → 0.7 | 6306 | 0 | 2 | 5 | -14 | 1
Listed for O=C(N/N=C1\C/C(=N\NC(=O)c2ccncc2)c2ccccc21)c1ccncc1 → x | 4193 | x | -11 | x | -28 | x
